HIV TAR-Tat = HIV-1 TAR-Tat binding disruption; HIV-1 TAR RNA, Tat peptide displacement FRET; hits give high values; z-score (no concentration beside the values); 100,000 compounds, 0.6% hits; AID 1259389;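 further: score is relative to mean and SD of negative controls; some compounds called inactive have numbers as strong as hits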
CDC25B-CDK2 inh = human CDC25B-CDK2/CyclinA binding inhibition; P30305+P24941; HTRF CDC25B-CDK2/CyclinA binding, anti-His/anti-Flag; hits give high values; z-score (test concentration not listed); 94,000 compounds, 0.72% hits; AID 1259370;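 further: score is relative to mean and SD of negative controls; strong numbers were not always called active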
* hit, by the source's call; . = not tested or not shown.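 How the source made its calls: active means z-score from 3 up in half or more of its runs; inactive means the rest.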 Not a hit list; any-hit rate near 0.87%.

SMILES	HIV TAR-Tat	CDC25B-CDK2 inh
Cc1cc(C)c2c(c1)-c1cc(C)nn1C(c1ccc(N3CCOCC3)cc1)N2 (configuration not stated)	-0.1	-1.8
COc1ccc(OC)c(C2/C(=C(\O)c3ccccc3)C(=O)C(=O)N2c2cccnc2)c1 (configuration not stated)	1.9	-3.8
CC(=O)OCCCn1c(=O)c2cc3c(=O)n(CCCOC(C)=O)c(=O)c3cc2c1=O	.	-0.73
COc1ccc(OC)c(NC(=O)C2=Cc3sc4c(c3CS2)CCCC4)c1	-0.24	.
CCc1ccc(-c2cc(C)no2)cc1S(=O)(=O)N1CCN(c2ccc(N3CCOCC3)nn2)CC1	1.3	.
COc1ccc(C2=C(C)C(=NC3CCCc4ccccc43)NS2(=O)=O)cc1 (configuration not stated)	2.2	-1.2
CC1C(=O)Nc2ccc(S(=O)(=O)Nc3ccc(Cl)cc3F)cc2NC1=O (configuration not stated)	1.7	-1.5
COc1ccc(-n2c(C)c(C)c3c2ncn2nc(-c4cccs4)nc32)cc1	0.02	-0.13
Cc1ccc(-c2cn(-c3ccccc3)c3[n+]2CCCS3)cc1	0.68	-2
O=C1CCC(=O)N1CCCn1c2ccccc2c2nc3ccccc3nc21	1	14*
CCC(=O)Nc1sc2c(c1C(=O)Nc1ccc(Br)cc1)CCCCC2	-2.3	-0.31
Cc1ccc(Cn2c(=O)c3ccccc3n3c(=O)[nH]nc23)cc1	2.4	1.9
C/C(O)=C(\C#N)c1nc(C(C)(C)C)cs1	.	-1.6
O=C(O)c1csc(-n2nc3c(c2C(F)(F)F)CCCCC3)n1	0.18	.
CC(C)c1cc(C(=O)Nc2sc3c(c2C#N)CCCC3)no1	-0.55	-2.9
O=C(Nc1ccc(F)cc1)Nc1csc2c1CCCC2	3.9	-0.5
COCCOC(=O)C1=C(C)NC2=C(C(=O)C(C(=O)OC)C(C)C2)C1c1ccc(C)o1 (configuration not stated)	-0.58	-0.76
CNC(=S)N/N=C/c1cc(C(F)(F)F)cc(C(F)(F)F)c1	.	-2.5
O=C(O)c1ccc2c(c1)CCCN2CC(O)C(F)(F)F (configuration not stated)	.	-1.4
Nc1nc(SCC(=O)NCCN2CCOCC2)nc2sc3c(c12)CCC3	.	0.26
O=C(Cc1noc2ccccc12)Nc1ccc(Cl)cn1	1.8	-0.92
O=C(c1cnc2sc(N3CCCC3)nn2c1=O)N1CCOCC1	-1.3	.
COc1ccc(C2Sc3ccccc3N=C3c4ccccc4SCC32)cc1 (configuration not stated)	.	-1.2
C=CCN(C(=O)NCc1noc2ccccc12)c1ccccc1	-0.82	.
O=C(Cn1c(=O)oc2ccccc21)Nc1ccc(Cl)cc1	4.7	.

15 entries already listed, arranged by molecular weight, smallest number first.
SMILES	HIV TAR-Tat	CDC25B-CDK2 inh
C/C(O)=C(\C#N)c1nc(C(C)(C)C)cs1	.	-1.6
O=C(Cc1noc2ccccc12)Nc1ccc(Cl)cn1	1.8	-0.92
O=C(O)c1ccc2c(c1)CCCN2CC(O)C(F)(F)F (configuration not stated)	.	-1.4
O=C(Nc1ccc(F)cc1)Nc1csc2c1CCCC2	3.9	-0.5
O=C(Cn1c(=O)oc2ccccc21)Nc1ccc(Cl)cc1	4.7	.
CNC(=S)N/N=C/c1cc(C(F)(F)F)cc(C(F)(F)F)c1	.	-2.5
O=C(O)c1csc(-n2nc3c(c2C(F)(F)F)CCCCC3)n1	0.18	.
O=C(c1cnc2sc(N3CCCC3)nn2c1=O)N1CCOCC1	-1.3	.
Cc1cc(C)c2c(c1)-c1cc(C)nn1C(c1ccc(N3CCOCC3)cc1)N2 (configuration not stated)	-0.1	-1.8
COc1ccc(-n2c(C)c(C)c3c2ncn2nc(-c4cccs4)nc32)cc1	0.02	-0.13
COc1ccc(OC)c(NC(=O)C2=Cc3sc4c(c3CS2)CCCC4)c1	-0.24	.
COc1ccc(C2Sc3ccccc3N=C3c4ccccc4SCC32)cc1 (configuration not stated)	.	-1.2
CC(=O)OCCCn1c(=O)c2cc3c(=O)n(CCCOC(C)=O)c(=O)c3cc2c1=O	.	-0.73
CCC(=O)Nc1sc2c(c1C(=O)Nc1ccc(Br)cc1)CCCCC2	-2.3	-0.31
CCc1ccc(-c2cc(C)no2)cc1S(=O)(=O)N1CCN(c2ccc(N3CCOCC3)nn2)CC1	1.3	.

Additional records follow.
SMILES	HIV TAR-Tat	CDC25B-CDK2 inh
c1ccc(-n2nnnc2Oc2cccc(CNCC3CCCO3)c2)cc1 (configuration not stated)	1.7	.
CCOC(=O)c1cnc(SCc2nc(-c3ccc(C)cc3)oc2C)nc1N	-0.42	.
CCOC(=O)CSc1nc(-c2ccccc2)cc(C(F)(F)F)c1C#N	.	-1.6
Cc1ccc(C(=O)Nc2c(C(=O)N(Cc3ccco3)CC3CCCO3)oc3ccccc23)cc1 (configuration not stated)	1.7	.
COc1ccc2c(c1)c(C#N)c1n2CCN=C1N(C)C	-0.78	-1.6
COc1cnc(CSc2nnc(C)s2)cc1OCC(=O)N1CCc2ccccc21	0.08	.
O=C1C2ON(c3ccccc3)C(c3cccs3)C2C(=O)N1c1ccccc1 (configuration not stated)	.	-2.2
Cn1c(O)c(N=NC(=O)C2COc3cc4ccccc4cc3O2)c2ccccc21 (configuration not stated)	.	-2
CCOc1ccc2ncc(S(=O)(=O)c3ccc(OC)cc3)c(N3CCN(C)CC3)c2c1	0.84	-2
O=C1C(=O)N(CN2CCc3ccccc3C2)c2ccc(Br)cc21	.	-0.4
COc1ccc(OC)c(C2CC(=O)C3=C(C2)NC(=O)CC3c2ccc(OC)c(OC)c2)c1 (configuration not stated)	1.6	-1.6
COc1ccc(CCNC(=O)Cn2c(=O)oc3ccccc32)cc1OC	.	-0.97
O=C(c1noc2c1COc1ccccc1-2)N(Cc1ccco1)CC1CCCO1 (configuration not stated)	0.32	-1
COC(=O)c1ccc(C2Nc3ccccc3NC3=C2C(=O)CC(c2ccccc2)C3)cc1 (configuration not stated)	0.61	-1.2
CCOC(=O)c1ccc(Oc2ncnc3sc(C)c(C)c23)cc1	0.27	.
Cn1c(Cn2c(=O)sc3ccccc32)nnc1SCC(=O)Nc1ccc(F)cc1	.	-0.47
C=CCSc1ncc(Cl)c(C(=O)N(Cc2ccco2)C2CCS(=O)(=O)C2)n1 (configuration not stated)	0.2	0.19
O=C(NC1CCCc2ccccc21)c1cc(C2CC2)[nH]n1 (configuration not stated)	0.7	.
O=C(NCc1nnnn1-c1ccccc1)Nc1cccs1	-1.5	.
Cc1nc2scc(C)n2c(=O)c1S(=O)(=O)Nc1cccc(Cl)c1C	-0.5	-0.28
COc1cc(Cl)c(C)cc1Nc1cnn(-c2nc3ccccc3s2)c(=O)c1Cl	-0.97	-0.29
Cc1ccccc1-n1nc(C)c2c1CC(C)(C)CC2=O	.	0.17
N/C(=N\OC(=O)c1csc([N+](=O)[O-])c1)c1cccc(C(F)(F)F)c1	.	0.23
CCOC(=O)c1c(C)[nH]c(C)c1S(=O)(=O)N(C)CC(=O)Nc1nccs1	0.84	.
COc1ccc2c(c1)CCc1c-2n[nH]c1C(=O)NCCCN(C)C1CCCCC1	0.61	.
SMILES	HIV TAR-Tat	CDC25B-CDK2 inh
Fc1cccc(-c2nn3c(COc4ccccc4)nnc3s2)c1	-0.78	-1
CCOC(=O)c1cc2c(C)nc3ccc(OC)cc3c2o1	1.7	-0.52
OCc1nc2ccccc2n1CC(O)Cn1ccc2ccccc21 (configuration not stated)	0.16	-0.02
Cc1ccc(Cl)cc1-n1ncc2c(NCCO)ncnc21	1.3	.
COC(=O)CN1C(=O)CSc2ccc(S(=O)(=O)Nc3ccc(F)cc3F)cc21	0.1	.
CC1CC2(CCCCCC2)NCc2ccccc21 (configuration not stated)	.	-1.4
CC1CCc2c(sc(NC(=O)CCCn3cnc([N+](=O)[O-])n3)c2C(N)=O)C1 (configuration not stated)	.	-0.78
O=C(Nc1cccc(C(F)(F)F)c1)c1cccc(Cn2cc(C(F)(F)F)ccc2=O)c1	.	-1.7
CCOc1cc(-c2nc(-c3ccc(Cl)cc3)no2)cc(OCC)c1OCC	.	0.36
Cc1ccc(C2c3c(-c4ccccc4O)n[nH]c3C(=O)N2CCO)cc1 (configuration not stated)	-0.34	-2.4
CCn1cc(C2=NOC(C(=O)Nc3ccc4c(c3)OCO4)C2)c(C)n1 (configuration not stated)	-1.1	0.39
CCn1c[n+](CC(O)COc2ccccc2OC)c2ccccc21 (configuration not stated)	1.1	-0.72
Cc1ccc(-c2noc(CCC(=O)NC3CCCC3)n2)cc1	.	-1.7
CCC(C(C#N)C(N)=S)C1C(=O)OC(C)(C)OC1=O (configuration not stated)	.	-2.3
CCOC(=O)N1CCC2(CC1)OC(=O)C(C)=C2C(=O)NCCC1=CCCCC1	0.87	.
COCc1nc2ccccc2n1Cc1ccc(C(C)C)cc1	1.4	0.06
Cc1cc(C)n2nc(CNS(=O)(=O)c3ccc(F)c(C)c3)nc2n1	-2.2	-0.07
Cc1oc2cc3oc(=O)c4c(c3cc2c1C)CCC4	.	-2.2
CSc1ccc(C2c3[nH]c4ccccc4c3CCN2C(=O)c2ccco2)cc1 (configuration not stated)	2.4	.
Fc1ccc(N2CCN(c3ncnc4c3cnn4-c3ccccc3)CC2)cc1	1.8	.
CC(C)(C)c1cc2c(c(C(C)(C)C)c1)OCN(CC(=O)O)C2	1.9	-1.3
CC(=O)Nc1ccc2nc(SCc3cc(=O)n4nc(C)sc4n3)sc2c1	0.4	.
O=C1c2cccnc2C(Nc2ccc(F)c(F)c2)N1Cc1ccc(F)cc1 (configuration not stated)	0.18	.
COc1ccc(-c2csc(Nc3ccc(S(=O)(=O)Nc4cc(C)on4)cc3)n2)cc1	.	-0.09
CCN(CC)S(=O)(=O)c1ccc2c(c1)N(CC(=O)NC(C)C)C(=O)CS2	-0.65	-0.93
SMILES	HIV TAR-Tat	CDC25B-CDK2 inh
Cc1ccc(S(=O)(=O)n2nc(OC(=O)c3cccs3)cc2N)cc1	-1.2	0.11
CSCC[C@@H](C(=O)NC1CCCCCC1)N1Cc2ccccc2C1=O	.	-0.41
CCOc1ccc(CCNS(=O)(=O)c2c(C)nc3sc(CC)nn3c2=O)cc1OCC	0.51	-0.93
CCOc1ccc(Nc2nnc(-n3nc(C)cc3C)c3ccccc23)cc1	0.46	-1.8
CCC(=O)Nc1ccc2c(c1)CC(=O)N2C	0.9	.
CCOC(=O)Cn1c(=O)oc2cc(S(=O)(=O)Nc3ccc(OC)c(OC)c3)ccc21	-2.1	-0.49
Cc1ccc(C2CC(=O)c3cnc(N4CCN(Cc5ccc6c(c5)OCO6)CC4)nc3C2)cc1 (configuration not stated)	-0.4	-0.2
CCc1ccc(NS(=O)(=O)c2cc3c(cc2C)N(C)CCO3)cc1	2.1	.
CN1CCc2c(sc3c2C(=O)NC(/C=C/c2ccc4c(c2)OCO4)N3)C1 (configuration not stated)	0.29	0.17
Cc1ccc(Cl)cc1N1CCN(c2nn3nnnc3c3ccccc23)CC1	0.91	.
COc1ccc(Nc2ncnc3c2cnn3-c2cccc(Cl)c2)c(OC)c1	1.6	.
Cc1nn(C(C)C(=O)NCCc2c[nH]c3ccccc23)c(=O)c2c1sc1ccccc12 (configuration not stated)	2.5	-1.7
Cc1ccc(SCc2cc(=O)n3nc(-c4cccs4)sc3n2)cc1	-0.08	-1.6
Nc1ncnc2nc(SCc3nc4ccccc4n3Cc3ccccc3)[nH]c12	1.8	-0.43
COc1ccc2c(c1)C=C(C(=O)O)CO2	-0.59	-0.85
CC1CCCCC1NS(=O)(=O)c1ccc2c(c1)NC(=O)CS2 (configuration not stated)	1.3	.
O=C(c1ccc([N+](=O)[O-])s1)N1CCc2ccccc21	0.15	-1.2
Cc1nn2c(N3CCOCC3)cc(C(C)(C)C)nc2c1-c1ccc(F)cc1	0.6	-2
O=C(COc1ccc2ccccc2c1)Nc1c2c(nn1-c1cccc(Cl)c1)CS(=O)(=O)C2	2.5	.
N/C(=N\OC(=O)c1ccccc1)c1ccc(-c2csnn2)cc1	.	-0.77
Cc1ccc(C(CNC(=O)c2cccs2)N2CCCCC2)o1 (configuration not stated)	-1.4	-1.3
O=C(NCCN1CCOCC1)C1CCN(c2ncnc3c2sc2cccc(F)c23)CC1	-0.9	-0.77
CCCCN1C=C(OC(=O)COc2ccc(OC)cc2)c2ccccc2S1(=O)=O	-0.27	-1.3
O=c1c2oc3nc4c(cc3c2ncn1Cc1ccc(Cl)cc1)CCCC4	-0.28	.
COc1cnc(CSc2nnnn2C)cc1OCC(=O)NC1CCCC1	2.2	.
SMILES	HIV TAR-Tat	CDC25B-CDK2 inh
CC1CCCCN1c1nnc(NC(=O)Nc2ccc3c(c2)OCCO3)s1 (configuration not stated)	1.4	-1.7
CCOC(=O)N1CCC(N2C(=O)c3ccccc3C2Nc2ccccc2Br)CC1 (configuration not stated)	-0.9	-1.2
Cc1c(-c2nc(-c3ccc4c(c3)OCO4)no2)nnn1-c1ccc(F)cc1	1.3	.
CCN(CC)C(=O)c1c(NC(=O)c2ccco2)sc2c1CCC(C)C2 (configuration not stated)	.	-0.02
CSC(=NCc1c(N(C)C)cccc1N(C)C)NS(=O)(=O)c1ccccc1	.	0.63
CCCSCCCNC(=O)c1cc2c(s1)CS(=O)(=O)C2	0.98	-1.4
Cc1c(C(=O)N(Cc2cccs2)C2CCS(=O)(=O)C2)oc2ccccc12 (configuration not stated)	-1.1	-0.6
CCOCCc1nn2c(=O)cc(COC(=O)COc3ccccc3)nc2s1	1.2	.
CCOC(=O)COc1ccc(C2NC(C(=O)O)CS2)cc1 (configuration not stated)	.	-1.9
Cn1c(=O)c2c(-c3ccccc3Br)n(C[C@H]3CCCO3)cc2n(C)c1=O	1.9	-1.8

Ordered by molecular weight (lowest first): part of the list above
SMILES	HIV TAR-Tat	CDC25B-CDK2 inh
CCN(CC)C(=O)c1c(NC(=O)c2ccco2)sc2c1CCC(C)C2 (configuration not stated)	.	-0.02
CCOCCc1nn2c(=O)cc(COC(=O)COc3ccccc3)nc2s1	1.2	.
CCOC(=O)N1CCC(N2C(=O)c3ccccc3C2Nc2ccccc2Br)CC1 (configuration not stated)	-0.9	-1.2
